Bioassay records from PubChem BioAssay.
miR-21 FLuc = miR-21 reporter, rising signal | 340,000 tested, under 10 active | AID 2288 | HeLa miR-21 FLuc reporter, luciferase, 48 h | Potency, µM (highest dose often 38.3 µM), inactives show top-dose reporter change, positive = more light; active = well fitted rising curve with a large enough effect; inconclusive = small, poorly fitted or top-dose-only effect; inactive = no such curve, though single readings can be large or run the other way;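 further: % of control where 0% means no effect; miR-21 action dims this reporter so a rising signal means less miR-21 action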
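Using DMEM plus 10% FBS, HeLa miR-21-FLuc cells are incubated with test compounds (final up to about 40uM) for 48 hours; firefly luciferase signal is then imaged following reagent-mediated lysis.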
Rango-impB inh = prevents formation of the Rango-importin beta complex; Q14974; Rango CFP/YFP FRET sensor + importin beta, 45 min; Potency, µM (titrated, usually from 92.2 µM), for inactives: top-dose inhibition of complex formation; hit rate 0.031% among 340,000; AID 540263; active = rising FRET ratio curve, often small or poorly fitted; inconclusive = mostly compound fluorescence or quenching in the first reads; inactive = flat curves in all reads;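 further: potency means the concentration at half of the fitted maximal effect; 0% = DMSO wells and 100% = buffer wells lacking importin beta; nearly all actives have a fitted effect of over 15% in size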
Target sequence (Q14974 whole entry, looked up): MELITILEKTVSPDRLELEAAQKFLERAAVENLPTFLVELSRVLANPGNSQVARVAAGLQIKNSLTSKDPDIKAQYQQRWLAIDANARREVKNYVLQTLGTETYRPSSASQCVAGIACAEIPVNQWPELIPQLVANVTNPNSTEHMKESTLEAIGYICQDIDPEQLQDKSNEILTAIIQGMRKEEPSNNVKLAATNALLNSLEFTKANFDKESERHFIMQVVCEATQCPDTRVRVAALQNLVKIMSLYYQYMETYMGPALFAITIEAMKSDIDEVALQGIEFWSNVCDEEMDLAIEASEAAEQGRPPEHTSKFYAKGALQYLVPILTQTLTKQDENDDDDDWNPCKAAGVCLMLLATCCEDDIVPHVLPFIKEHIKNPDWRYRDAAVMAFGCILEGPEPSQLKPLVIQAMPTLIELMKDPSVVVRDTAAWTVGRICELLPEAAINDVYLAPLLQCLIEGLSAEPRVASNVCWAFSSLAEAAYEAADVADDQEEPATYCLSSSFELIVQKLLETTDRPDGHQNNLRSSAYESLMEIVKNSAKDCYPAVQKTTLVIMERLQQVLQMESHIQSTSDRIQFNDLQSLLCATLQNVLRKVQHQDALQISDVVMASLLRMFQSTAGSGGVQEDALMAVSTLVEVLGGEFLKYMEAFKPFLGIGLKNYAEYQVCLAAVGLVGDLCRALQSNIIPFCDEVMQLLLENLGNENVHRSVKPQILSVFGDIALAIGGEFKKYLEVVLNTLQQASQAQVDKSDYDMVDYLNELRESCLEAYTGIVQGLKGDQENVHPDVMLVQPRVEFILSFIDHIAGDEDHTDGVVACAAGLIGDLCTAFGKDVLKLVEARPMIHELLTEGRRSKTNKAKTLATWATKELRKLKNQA
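FRET biosensor (snurportin 1 IBB flanked by EYFP and cerulean), 50 nM, with compound 5 min, then 0.125 microM importin beta in PBS, 1 mM DTT, 0.02% Tween-20, 0.1% BSA. CFP/YFP ratio read after 45 min at room temperature; pre-read flags interference.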
GLA inh pH 4.5 = blocks human alpha-galactosidase A at pH 4.5; activity change, negative = inhibition, % at 105 µM; AID 1467; purified enzyme, 4-MU-alpha-Gal fluorescence, pH 4.5; 230,000 tested, under 10 active; inconclusive = small, poorly fitted or top-dose-only inhibition, or a rising curve; inactive = flat fitted curve, though single readings scatter; no compound was filed as active;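 further: 0% = full activity with enzyme and -100% = basal without enzyme; dose as in the result columns while the protocol names 77 µM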
Rango dissoc inh = prevents RanGTP from dissociating the Rango-importin beta complex; Biochemical FRET Rango-importin beta, RanGTP-induced dissociation; hit rate 0.071% among 340,000; Potency, µM (highest dose often 46.1 µM), without a hit: top-dose activity change, negative = inhibition; AID 540253; active means falling FRET ratio curve, often poorly fitted, with flat reads before Ran was added; inconclusive means other falling curves, or compound fluorescence or quenching; inactive means flat or rising ratio curve;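 further: potency means the concentration at half of the fitted maximal effect; % of control where 0% means no effect; nearly all actives have a fitted effect of over 45% in size; -100% = wells without RanGTP and RCC1; the record marks most hits as doubtful in a second field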
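FRET read at 45 min, room temperature: inhibitors block the CFP/YFP signal rise when RanGTP (0.6 uM Ran, 2 mM GTP, 0.2 uM RCC1) frees Rango (0.1 uM) from importin beta (0.25 uM). Pre-read after 5 min compound exposure flags interference.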
Active calls of the source: *; ? = inconclusive; nt = no result given; & = joins results of further samples; [ ] = another dose, or the depositor's remark. These rows are one share of the data; rates above refer to the full screens.

Value order – miR-21 FLuc, Rango-impB inh, GLA inh pH 4.5, Rango dissoc inh
> CSc1ccccc1NC(=S)NC1CCCCC1
→ -6%, -1.1%, 3, -1%
> O=C(CN1CCN(Cc2ccccc2)CC1)NCCNc1ccc([N+](=O)[O-])cn1
→ -1%, -0.4%, -11, 18%
> CCCNC(=O)c1ccccc1NC(=O)c1ccccc1SC
→ -1%, 2.6%, -5, 11%
> COc1cc(CN2CC(=O)N(c3ccc(C)cc3)C2=S)cc(OC)c1OC
→ -6%, -2.7%, 3, 5%
> COc1ccc(OCC(=O)NCCc2c[nH]c3ccccc23)cc1
→ -6%, 0.9%, 1, ?
> CCCCC(=O)Nc1cccc(-c2csc(-c3ccccc3)n2)c1
→ -24%, 0.2%, -12, 1%
> C=CCn1c(C)cc(C(=O)CN2C(=O)c3ccccc3C2=O)c1C
→ ?, 2.7%, -1, 1%
> CN(C)CCCC(C)(O)C(C)(C)c1ccccc1 (stereo unspecified)
→ -13%, -3.8%, 5, -2%
> COc1ccc2c(c1)cc(C(=O)N[C@@H](Cc1ccccc1)C(=O)N[C@@H](C)C(=O)O)n2C
→ 0%, 8.2%, nt, -3%
> Cc1ccc(-n2c(SCC(=O)OC(C)C)nnc2-c2cnccn2)cc1
→ -11%, 3.0%, 2, -10%
> FC(F)(F)c1cccc(Oc2cc(C(F)(F)F)nc(-c3ccccn3)n2)c1
→ 1%, -0.1%, -8, -4%
> Cc1nc2sc(-c3ccccc3)cc2c(=O)n1N
→ -19%, -4.8%, -9, 5%
> S=C(Nc1ccc2c(c1)OCO2)N1CCCC1
→ -31%, 3.4%, 2, 18%
> Cc1ccc(C(=O)COC(=O)c2cnccn2)cc1[N+](=O)[O-]
→ 0%, -0.9%, nt, 4%
> O=C(Cc1csc(-c2ccccc2)n1)Nc1ccc(C(F)(F)F)cc1
→ -4%, -4.1%, -4, 5%
> COc1ccc(NC(=S)N2CCCC(c3nc4ccc(C)cc4[nH]3)C2)cc1 (stereo unspecified)
→ -7%, -2.2%, -14, -1%
> COc1cc(/C=C2/SC(=S)N(CC(=O)Nc3cccnc3)C2=O)cc(OC)c1OC
→ -7%, ?, -1, -17%
> COc1ccc(CCCC(=O)NC2CCCCC2)cc1
→ -8%, 6.8%, -1, -5%
> Cc1c(CC(=O)N2CCN(C(=O)C3COc4ccccc4O3)CC2)c(=O)oc2cc(O)c(Cl)cc12 (stereo unspecified)
→ -3%, ?, nt, ?
> CCOc1cc(C(=S)N2CCOCC2)ccc1OC(=O)c1ccccc1
→ 0%, -0.5%, nt, -6%
> CCOC(=O)Cc1csc(NC(=O)CSc2nc(=O)[nH]c3c2CCCC3)n1
→ nt, -2.1%, nt, 0%
> CC(C)(C)C(=O)C(Cl)C(=O)Nc1ccccc1 (stereo unspecified)
→ 17%, 0.3%, 6, 30%
> COC(=O)c1c(-c2ccc(S(C)(=O)=O)cc2)sc2cc(OC)ccc12
→ nt, -0.3%, nt, 20%
> CSCCC(NC(=O)c1ccc([N+](=O)[O-])cc1Cl)C(=O)OCC(=O)N(C)C (stereo unspecified)
→ 1%, 1.2%, 3, 5%
> CN(CC(=O)Nc1ccc(F)cc1)CC(=O)N(C)C1(C#N)CCCCC1
→ nt, -0.7%, nt, 6%
> COC(=O)c1ccc(C(=O)OC)c(-n2c(=O)c3ccccc3c3ccccc3c2=O)c1
→ -9%, 2.9%, 0, -2%
> CCCC(=O)n1nc(-c2ccccc2)nc1N
→ -7%, 0.2%, 3, -18%
> COc1ccc(-n2c(COc3ccc4ccccc4c3)nnc2SCC(=O)NCc2ccco2)cc1
→ 1%, ?, -7, -4%
> CC(C)(C)c1cc[n+](-c2[nH]c(=O)sc2/C=N/N=C(\[O-])c2ccccc2)cc1
→ -6%, -0.1%, nt, -9%
> O=C(O)c1ccc2oc(SCC(=O)N3CCCCC3)nc2c1
→ -27%, 0.5%, 1, 0%
> CCOc1ccccc1NC(=O)C1CCN(c2ccc(S(=O)(=O)N3CCCC3)cc2)CC1
→ 4%, 8.7%, 2, -4%
> Cc1ccc(C2CC(c3cccc(NS(C)(=O)=O)c3)=NN2S(C)(=O)=O)cc1 (stereo unspecified)
→ -18%, -0.6%, 10, -20%
> CCN1CCCC1CN(Cc1cc2ccc(C)c(C)c2[nH]c1=O)C(=O)Nc1ccccc1OC (stereo unspecified)
→ -6%, -4.1%, -10, 1%
> CCSc1nnc(Cc2cc(=O)[nH]c(=O)[nH]2)n1-c1ccc(F)cc1
→ -10%, 0.1%, 5, 0%
> CCOc1ccc(N2C(=O)C3C4C=CC(CC4)C3C2=O)c([N+](=O)[O-])c1 (stereo unspecified)
→ -11%, 3.1%, -2, 7%
> COc1ccc(NC2CCCN(C(=O)CCOc3ccccc3)C2)cc1 (stereo unspecified)
→ -3%, 0.2%, nt, 5%
> CN(C(=O)c1ccc(NC(=O)Cc2cccc(NC(=O)C3CCN(C(=O)C4CCC4)CC3)c2)cc1)C1CC1
→ nt, 1.2%, nt, 12%
> Nc1cc(N)nc(SCC(=O)Nc2ccc3c(c2)OCCCO3)n1
→ -28%, -1.6%, -4, -14%
> Cc1cn(C2CC(O)C(CO)O2)c(=O)n(Cc2ccccc2)c1=O (stereo unspecified)
→ nt, ?, nt, -29%
> O=C(Nc1ccccc1)OCCCCCOC(=O)Nc1ccccc1
→ -6%, 1.1%, nt, -2%
> O=c1oc(-c2ccccc2)nc2ccsc12
→ -14%, -1.8%, 1, 11%
> Cc1ccccc1NC(=O)Cc1nnc(SCC(=O)NC2CCCC2)n1C
→ -1%, -1.4%, nt, 15%
> COc1ccc(C(=O)Oc2ccc3ccc(=O)oc3c2)cc1
→ -6%, -4.5%, nt, -7%
> Cc1ccc(N(CC(O)Cn2c3ccccc3c3ccccc32)S(C)(=O)=O)cc1 (stereo unspecified)
→ 12%, 1.1%, 4, -15%
> CN(C(=O)c1ccncc1)C1CCS(=O)(=O)C1 (stereo unspecified)
→ -3%, -1.0%, 1, -3%
> O=C(OCCN1CCOCC1)c1cccnc1
→ 0%&2%, 2.5%&3.1%, 5&6, -14%&-7%
> O=C(O)c1cccc(N2C(=O)c3cccc(Oc4ccc(Cl)cc4)c3C2=O)c1
→ -6%, 1.2%, 1, 6%
> CN(C)S(=O)(=O)c1ccc(-c2csnn2)s1
→ -2%, -1.6%, 7, 0%
> C1=C[C@H]2CC[C@@H]1N(c1ccccc1)O2
→ nt, -0.9%, nt, -22%
> OCc1cn(-c2ccc(Cl)cc2)nn1
→ 2%, 0.9%, 9, 1%
> O=C(Nc1nncs1)C1COc2ccccc2O1 (stereo unspecified)
→ -39%, -4.6%, -8, 23%
> COC(=O)c1ccc(NC(=O)CSc2nncn2-c2ccccn2)cc1
→ 0%, 0.9%, nt, 7%
> Cc1nc2ccccc2c(=O)n1NC(=O)/C=C/c1ccccc1Cl
→ -3%, -1.5%, -6, 0%
> CCN(CC)CCN(C(=O)c1ccc(S(=O)(=O)N2CCCCC2)cc1)c1nc2cc3c(cc2s1)OCO3
→ -3%, 1.0%, -6, -9%
> O=C(O)C1CC(=O)N(Cc2ccccc2)C1 (stereo unspecified)
→ -3%, 3.2%, 2, 3%
> Cc1c(C(=O)NC2CCCCC2)oc2ccccc12
→ -57%, -4.1%, nt, -4%
> COc1ccccc1CNC(=O)CCC(=O)N1CC(C)Sc2ccccc21 (stereo unspecified)
→ 3%&1%, 0.1%, nt, -10%
> O=C(CS(=O)(=O)Cc1ccccc1)Nc1nnc(C(F)(F)F)s1
→ -2%, -3.7%, nt, 7%
> COc1cc2ccccc2cc1C(=O)N1CCCC1
→ 1%, 1.9%, nt, -13%
> COc1ccccc1NC(=O)C(=O)N1N=C(C(C)C)CC1(O)C(F)(F)F (stereo unspecified)
→ 7%, 1.3%, 8, -1%

Entries of single compounds, looked up by structure. Order of values: miR-21 FLuc	Rango-impB inh	GLA inh pH 4.5	Rango dissoc inh
`CCCCC(=O)Nc1cccc(-c2csc(-c3ccccc3)n2)c1` as listed: -24%	0.2%	-12	1%
`COc1ccc(OCC(=O)NCCc2c[nH]c3ccccc23)cc1` as listed: -6%	0.9%	1	?

(list continues)
Value order – miR-21 FLuc, Rango-impB inh, GLA inh pH 4.5, Rango dissoc inh
> CN(CC(=O)Nc1cccc(F)c1)C(=O)CC1CCCCC1
→ nt, -1.4%, nt, -4%
> CCCCN1C(=O)c2cccc3cc(O)cc(c23)C1=O
→ nt, ?, nt, ?
> CCOC(=O)N1CCN(CC(O)COc2ccc3c(c2)CCC3)CC1 (stereo unspecified)
→ -3%, -5.7%, nt, 2%
> CCOP(=O)(OCC)c1nc(-c2ccccc2)oc1NCc1ccccc1
→ -12%, 3.2%, 2, -5%
> C(=N\Nc1nc(N2CCCC2)nc(N2CCCC2)n1)/c1ccncc1
→ -2%, 1.3%, -2[21.1 µM], 13%
> Nc1nnc(CC(=O)NCc2ccccc2)s1
→ -11%, 5.3%, -5, 9%
> COc1ccc(C(=O)Nc2ccc(C(=O)O)cc2NC(=O)c2ccc(OC)cc2)cc1
→ 0%, 1.0%, nt, -7%
> O=C(Nc1cccs1)Nc1ccccc1Br
→ -16%, ?, -4, -22%
> CCc1cccc(NC(=O)CCCSc2nc3ccccc3[nH]2)c1
→ 12%, 1.9%, -24, -2%
> O=C1c2oc3ccccc3c(=O)c2C(c2cccc(Br)c2)N1Cc1ccco1 (stereo unspecified)
→ -3%, -12%, -7, -21%
> Cc1ccc(NC(=O)c2ccc(CSc3ncnc4nc[nH]c34)cc2)c(C)c1
→ 10%, -0.3%, 3, 13%
> O=C(CN1CCOCC1)NC1C2CC3CC(C2)CC1C3 (stereo unspecified)
→ -18%, 2.5%, -1, -21%
> CCn1nnnc1SCC(=O)NNC(=O)C1CCCCC1
→ -10%, 0.4%, 3, 1%
> COCCn1c(SCC(=O)NCCc2ccccc2)nnc1-c1ccco1
→ 0%, -0.3%, 3, -12%
> CCc1nnc(NC(=O)c2ccc(-c3ccc([N+](=O)[O-])cc3Cl)o2)s1
→ 1%, -2.0%, -5, 3%
> Fc1ccc(-c2nc3c(-c4ccccc4)cnn3cc2CCN2CCOCC2)cc1
→ 0%, 0.9%, -7, 17%
> N=c1c2c(-c3ccccc3)c(-c3ccccc3)n(Cc3ccco3)c2ncn1Cc1ccco1
→ ?, 0.1%, -7, -7%
> Cc1ccc2c(Cl)cc(Cl)c(OCC(=O)N3CCOCC3)c2n1
→ nt, 1.3%, nt, -14%
> Cc1cc(C(=O)NCc2nc(-c3ccccc3)no2)ccc1[N+](=O)[O-]
→ -7%, -4.9%, -7, 5%
> COc1ccc(NC(=O)CSc2ccc(-c3sc(C)nc3C)nn2)cc1
→ 5%, 3.1%, nt, 1%
> CCOC1(OCC)N=C(N)C2(C#N)C(c3cccc(OC)c3OC)C12C#N (stereo unspecified)
→ -1%, -1.1%, -1, -7%
> Cc1cccc(-n2ncc3c(NC(C)C)ncnc32)c1
→ -16%, -0.5%, 6, 0%
> COCCC1CCCCN1C(=O)c1ccc(OC2CCN(C(C)=O)CC2)c(OC)c1 (stereo unspecified)
→ -6%, -4.1%, nt, 14%
> Cc1ccc(SCCc2ccc(C)nc2)cc1
→ -21%, -1.3%, -6, 0%
> CCOc1ccc(NC(=O)CCNc2c(N3CCCC3)c(=O)c2=O)cc1
→ -11%, -3.2%, 2, 2%
> O=C(Nn1c(-c2ccncc2)nc2ccccc2c1=O)c1ccc([N+](=O)[O-])cc1Cl
→ 5%, -0.7%, -1, -11%
> CCN(CC)S(=O)(=O)c1cccc(C(=O)NCC(=O)OCC(=O)NCc2ccccc2)c1
→ -2%, 1.6%, -3, 0%

Some of the entries so far, as labelled records:
> CCOc1ccc(NC(=O)CCNc2c(N3CCCC3)c(=O)c2=O)cc1
  miR-21 FLuc: -11%
  Rango-impB inh: -3.2%
  GLA inh pH 4.5: 2
  Rango dissoc inh: 2%

> O=C(Nn1c(-c2ccncc2)nc2ccccc2c1=O)c1ccc([N+](=O)[O-])cc1Cl
  miR-21 FLuc: 5%
  Rango-impB inh: -0.7%
  GLA inh pH 4.5: -1
  Rango dissoc inh: -11%
